Screens as filed in PubChem BioAssay.
SARS PLP yeast = SARS-CoV PLP inhibition in yeast; 330,000 compounds, 0.19% hits; Potency, µM (top dose mostly 32.9 µM), without a hit: at the highest dose activity, positive = growth rescue; AID 485353; S. cerevisiae expressing SARS-CoV PLpro, growth rescue; control for the full effect not named in the record; further: 0% is about no effect; nearly all actives have a fitted effect of over 55% in size; growth read by luminescence after 48 h
Cruzain inh noDet = cruzain (T. cruzi) inhibition without detergent; P25779; purified cruzain, Z-FR-AMC fluorescence, no detergent; Potency, µM, without a hit: max response, negative = inhibition, actives largely listed as inhibitors; 200,000 compounds, 2.3% hits; active means well fitted curve in the direction sought with a large enough effect; inconclusive means small, poorly fitted or top-dose-only effect, or another doubt; inactive means no such curve, though single readings can be large; an effect the other way counts as inactive or inconclusive;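 further: plate controls were enzyme without inhibitor for no effect and buffer without enzyme for full effect; nearly all actives have a fitted effect of over 40% in size; top concentration of the series not given in the record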
Target sequence (P25779 123-467 limits assumed): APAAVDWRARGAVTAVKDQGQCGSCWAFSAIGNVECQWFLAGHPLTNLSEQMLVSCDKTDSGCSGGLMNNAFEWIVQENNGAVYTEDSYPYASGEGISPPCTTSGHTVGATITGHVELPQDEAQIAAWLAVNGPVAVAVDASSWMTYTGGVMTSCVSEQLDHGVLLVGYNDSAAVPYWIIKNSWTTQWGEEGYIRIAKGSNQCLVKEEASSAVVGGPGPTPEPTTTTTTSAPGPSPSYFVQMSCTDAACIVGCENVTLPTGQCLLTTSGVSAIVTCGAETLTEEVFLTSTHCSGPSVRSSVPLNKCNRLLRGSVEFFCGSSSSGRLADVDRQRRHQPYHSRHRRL
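Detergent-free condition (0.00005% Triton X-100) in acetate buffer pH 5.5 with DTT. 1.5 nM enzyme and compound were pre-mixed 15 min, then 2 uM Z-FR-AMC substrate added; reaction progress from fluorescence change between first and third reads (60 s).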
LASV entry inh = inhibitors of Lassa virus binding or cell entry. Potency, µM (doses to about 37.9 µM), without a hit: at the highest dose activity change, negative = inhibition, actives largely listed as inhibitors. 300,000 compounds, 1.2% hits. AID 540256. Lassa virus pseudotype entry inhibition, cell reporter; control for the full effect not named in the record; active means well fitted inhibition curve with a large enough effect; inconclusive means small, poorly fitted or top-dose-only effect, or effect the other way; inactive means flat fitted curve, though single readings scatter; tested in HEK293 cells; further: on the % scale 0 is the no-effect control and ±100 the full control effect; nearly all actives have a fitted effect of over 50% in size; luciferase read-out
Marburg entry inh = inhibitors of Marburg virus binding or cell entry | Marburg virus pseudotyped entry inhibition, cell reporter; control for the full effect not named in the record; about a third of the inactives were read at about 46 µM | Potency, µM (top dose mostly 37.8 µM), inactives show at the top dose activity change, negative = inhibition, usual class: inhibitors | 300,000 compounds, 1.8% hits; active = well fitted inhibition curve with a large enough effect; inconclusive = small, poorly fitted or top-dose-only effect, or effect the other way; inactive = flat fitted curve, though single readings scatter; tested in HEK293 cells; about a fifth of its hits are not listed in these tables; further: on the % scale 0 is the no-effect control and ±100 the full control effect; luciferase read-out
RE007 growth inh = less growth of the S. pombe RE007 Vpr strain. S. pombe RE007 Vpr strain, BacTiter-Glo ATP luminescence, 24 h; control for the full effect not named in the record. Potency, µM (series often up to 92.2 µM), for inactives: top-dose activity change, negative = less growth. 360,000 compounds, 0.21% hits. AID 651644; active = well fitted falling curve with a large enough effect; inconclusive = small, poorly fitted or top-dose-only effect; inactive = no such curve, though single readings can be large or run the other way;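 further: on the % scale 0 is the no-effect control and ±100 the full control effect; nearly all actives have a fitted effect of over 50% in size; the assay follows cell death caused by Vpr and the record does not say whether a fall means rescue or toxicity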
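Fission yeast strain RE007, carrying one chromosomally integrated HIV-1 vpr copy, was seeded at OD 0.01 in PMG+AL medium with 23 nL pinned compound. After 24 h at 30 °C and 99% humidity, viability was read by BacTiter-Glo luminescence.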
NS1 inh = blocks influenza NS1 protein function; S. cerevisiae slowed by influenza A NS1, growth recovery by OD600; Potency, µM (doses to about 46.1 µM), inactives show at the top dose activity, positive = more growth; 270,000 compounds, 0.4% hits; AID 2326; further: actives are rising curves; nearly all actives have a fitted effect of over 50% in size
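Recovery from NS1-induced slow growth read by OD600 in budding yeast switched to galactose assay medium (pH 6.0, -URA) at 1:100 dilution. Compound 23 nl per well; the matching strain lacking NS1 serves as control.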
StopGo reporter = lowers the luciferase signal of an FMDV 2A StopGo reporter | human cells with a luciferase reporter of 2A StopGo recoding; control for the full effect not named in the record | 410,000 compounds, 1.2% hits | Potency, µM (doses to about 57.9 µM), inactives show top-dose signal change, negative = less light; active = well fitted falling curve with a large enough effect; inconclusive = small, poorly fitted or top-dose-only effect; inactive = no such curve, though single readings can be large or run the other way; tested in HEK293T cells; further: on the % scale 0 is the no-effect control and ±100 the full control effect; nearly all actives have a fitted effect of over 45% in size; luciferase light after 4 h
Cruzain inh Det = inhibitors of Trypanosoma cruzi cruzain with detergent; P25779; purified cruzain, Z-FR-AMC fluorescence, 0.01% Triton; Potency, µM, for inactives: max response, negative = inhibition, hits mostly inhibitors; 200,000 compounds, 0.43% hits; AID 1478; active means well fitted curve in the direction sought with a large enough effect; inconclusive means small, poorly fitted or top-dose-only effect, or another doubt; inactive means no such curve, though single readings can be large; an effect the other way counts as inactive or inconclusive;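 further: plate controls were neutral wells for no effect and buffer without enzyme for full effect; nearly all actives have a fitted effect of over 40% in size; top concentration of the series not given in the record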
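Steps: dispense cruzain (1.5 nM final) in acetate buffer pH 5.5 with DTT and 0.01% Triton X-100; pin-transfer compounds; incubate 15 min RT; add Z-FR-AMC (2 uM final); read fluorescence every 30 s, using the 60 s intensity change.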
The depositor's hits bear a star; u = inconclusive; x = no result given; & = joins results of further samples; [ ] = dose if it differs, or a comment. Unless noted, the call rests on the fitted dose curve; in most records, active means well fitted rising curve with a large enough effect; inconclusive means small, poorly fitted or top-dose-only effect; inactive means no such curve, though single readings can be large or run the other way. Potency means the concentration at half of the fitted maximal effect.

Structure	SARS PLP yeast	RE007 growth inh	Cruzain inh Det	Cruzain inh noDet	StopGo reporter	Marburg entry inh	NS1 inh	LASV entry inh
Cc1ccc(Cl)cc1NC(=O)C1COc2ccccc2O1 (stereo not given)	-3%	0%	x	x	17%	-24%	-5%	u
CN(C)c1ccc(C(=S)N2CCOCC2)cc1Br	0%	10%	-0.3%	11%	-11%	-4%	-13%	24%
Cc1ccc(S(=O)(=O)c2nc(C)c3c(n2)CCC3)cc1	4%	6%	5.9%	-9%	15%	1%	1%	1%
CSc1c(-c2ccccc2)nc2ccc(Cl)cc2c1C(=O)O	-3%	4%	-1.6%	5%	20%	6%	4%	16%
Cc1ccc(C(=O)NCC(c2cccnc2)N2CCc3ccccc3C2)cc1C (stereo not given)	x	x	-1.3%	2%	u	x	x	u
Cc1ccc(N(C)S(=O)(=O)c2ccc(-c3cc(C)no3)s2)cc1	-3%	26%	x	x	0%	x	-20%	x
Cc1cc(C)cc(NS(=O)(=O)c2ccc(NC(=O)C3CCCCC3C(=O)O)cc2)c1 (stereo not given)	2%	-13%	-4.8%	10%	28%	u	-7%	u
Cc1ccc(C)c(N2CCN(C(=O)CCS(=O)(=O)c3ccc4c(c3)oc(=O)n4C)CC2)c1	1%	9%	-3.1%	u	u	-19%&-19%[46.1 µM]	-8%	-13%&16%[46.1 µM]
CCN1/C(=C2/OC(=S)N(C)C2=O)Sc2ccccc21	5%	1%	2.5%	2%	-10%	13%	-7%	15%
Cc1nc2ccc(C(=O)O)cc2c2c1CC(CN)O2 (stereo not given)	-3%	7%	x	x	-10%	x	12%	x
Cc1ccnc2nc(C(=O)N3CCN(c4ccc(F)cc4)CC3)nn12	3%	1%	2.2%	2%	-4%	2%[46.1 µM]	7%	8%
O=C(Nc1nc2ccccc2[nH]1)C1CC(=O)N(c2ccc3c(c2)OCCO3)C1 (stereo not given)	-2%	3%	-7.2%	-17%	u	-18%	-2%	0%
COC(=O)C1CCN(C(=O)CN2C(=O)c3ccccc3S2(=O)=O)CC1	-2%	-7%	x	x	8%	27%[46.1 µM]	x	8%
Cc1nc2nc(SCC(=O)Nc3ccccc3Cl)nn2c(C)c1Cc1ccccc1	x	x	0.2%	-15%	1%	x	x	u
C=CCC(=O)N1CCCC(CO)(Cc2ccc(F)cc2F)C1 (stereo not given)	22%	5%	x	x	-15%	1%[46.1 µM]	6%	-11%[46.1 µM]
O=C(c1ccc(-c2ccccc2Cl)o1)N1CCN(c2ccccc2O)CC1	-1%	-5%	x	x	1%	u	x	u
COCCOC(=O)c1c(N)n(CCCN2CCOCC2)c2nc3ccccc3nc12	0%	-3%	x	x	-10%	6%	6%	14%
CCCCN(C(=O)CC1CCCC1)c1c(N)n(CC(C)C)c(=O)[nH]c1=O	-1%	18%	x	x	-8%	u	x	u
COc1cc(/C=C2\CCn3c2nc2cc(C(=O)O)ccc2c3=O)ccc1OC(F)F	4%	1%	x	x	3%	x	-1%	x
CCOc1ccccc1NC(=O)Nc1cccc(C(C)=O)c1	-1%	-4%	-4.9%	-16%	-11%	-2%	-10%	23%
CCN(CC)CCC(=O)N1C/C(=C/c2ccccc2)C(=O)/C(=C\c2ccccc2)C1	x	-14%	x	x	3.5µM*	11µM*	x	10µM*
O=C(NCc1ccccn1)c1ccc2c(c1)N(Cc1ccccc1)CCS2	0%	-2%	x	x	-3%	1%	-3%	x
O=C(CCc1nnc(Cc2ccc3c(c2)OCO3)o1)NCCc1ccccc1Cl	3%	17%	x	x	-10%	x	-19%	x
Cc1ccccc1N1C(=O)c2cccc3cccc(c23)C1=O	-3%	-6%	x	x	-14%	x	-10%	x
COCCNC(=S)N/N=C(\C)c1ccccc1OC	18%	1%	0.6%	-1%	-12%	-4%	18%	-3%
Cn1c(=O)[nH]c(=O)c2c1nc(N1CCOCC1)n2CC(O)COc1ccc2ccccc2c1 (stereo not given)	6%	38%	-4.6%	u	u	u	-9%	-6%
c1nnnn1C12CC3CC(CC(C3)C1)C2	3%	0%	3.7%	-2%	-20%	17%	-3%	-1%
CC(C)(C)c1ccc(OCCNC(=O)c2ncn[nH]2)cc1	-6%	4%	7.9%	6%	5%	19%	-67%	17%
COc1ccc(C(C)C)cc1S(=O)(=O)N1CCC(C(=O)N2CCN(C)CC2)CC1	1%	-19%	x	x	13%	6%	4%	-1%
O=c1c2nnn(Cc3ccccc3)c2ncn1C/C=C/c1ccccc1	6%	12%	-5.0%	-7%	-24%	-4%	-43%	x
O=C(C1CCN(S(=O)(=O)c2ccccc2)CC1)N1CCN(c2ccccc2)CC1	7%	8%	x	x	-26%	1%	9%	u
COc1ccc(C2c3c(-c4ccccc4O)n[nH]c3C(=O)N2Cc2ccco2)cc1 (stereo not given)	3%	-27%	-16%	-18%	-3%&-10%	-25%	3%	0.58µM*
COc1ccc(S(=O)(=O)N2CCN(C(=O)c3cccs3)CC2)cc1OC	-3%	15%	5.2%	7%	-23%	-17%	5%	1%
CC(C)Sc1ccc([N+](=O)[O-])cc1C(=O)Nc1ccncc1	-1%	-11%	x	x	-4%	-9%[46.1 µM]	-1%	-5%
CCc1ccc(N2CC(c3nc4ccccc4n3Cc3ccccc3C)CC2=O)cc1 (stereo not given)	x	x	-5.8%	-5%	-24%	u	x	-3%[46.1 µM]
NS(=O)(=O)c1ccc2nc(NC(=O)Nc3ccc(F)cc3)sc2c1	4%	-14%	x	x	42%[activator]	u	14%	-1%[46.1 µM]
CC(NC(=O)c1cccs1)c1nnc(SCc2ccc(Cl)cc2Cl)n1C (stereo not given)	23%	13%	-2.0%	3%	-11%	-3%	3%	9%
COc1ccc(NC(=O)CSc2nc(-c3ccco3)cc(C(F)(F)F)n2)cc1OC	x	x	-1.8%	-14%	u	-11%[46.1 µM]	x	-8%[46.1 µM]
C/C(=N\Nc1nc2ccccc2[nH]1)c1cc2ccccc2o1	-25%	-24%	-30%	u	-56%	u	-3%	-13%
O=C(Nc1ccc(Cl)cc1)N(C1=NCCC1)c1ccc(OC(F)F)cc1	-13%	-3%	1.5%	6%	x	-9%	20%	u
O=C(CN(Cc1ccccc1)C(=O)CCC(=O)Nc1nccs1)NCc1ccc(F)cc1	0%	0%	x	x	0%	-3%[46.1 µM]	-2%	-27%
CCOc1cc(N2CCOCC2)c(OCC)cc1NC(=O)c1cccc(N(C)C)c1	-2%	1%	x	x	-21%	u	x	u
Cc1cc(NC(=O)CSc2nnc(-c3c[nH]c4ccccc34)n2C)no1	1%	-7%	x	x	-2%	x	9%	x
Cn1c(CN2CCOCC2)nnc1SCC(=O)NC1CCCCC1	-15%	3%	1.1%	-4%	10%	9%	4%	18%
CC(c1ccccn1)N(CCN(C)C)C(=S)Nc1ccccc1F (stereo not given)	u	0%	7.8%	11%	-17%	-3%	-5%	5%
Cc1cccc(C(=O)N(c2ccccn2)C(C)c2ccco2)c1 (stereo not given)	0%	6%	x	x	25%	-22%	x	-5%
O=C(Nc1ccc2c(c1)OCO2)Nc1ccc(Br)cn1	1%	-10%	3.0%	-23%	74%[activator]	-5%	0%	u
Cc1c(C)c2ccc(OCC(=O)Nc3ccc(N4CCC(C)CC4)cc3)cc2oc1=O	-3%	-4%	x	x	-21%	u	-3%	14%[46.1 µM]
CCCN(C(=O)c1sc2nc3n(c(=O)c2c1C)CCCC3)c1ccccc1C	x	x	-3.7%	0%	-23%	x	x	14%[46.1 µM]
O=C(NC1CCCC1)C1CC(=O)N(CCc2ccccc2)C1 (stereo not given)	8%	2%	4.0%	-4%	5%	23%	2%	u
CN(c1ccc(C(=O)Nc2ccccn2)cc1)S(=O)(=O)c1ccccc1	-1%	-10%	x	x	23%	17%	-13%	-22%
O=C(c1cncc(Br)c1)N1CCN(S(=O)(=O)c2ccccc2)CC1	-3%	20%	x	x	5%	21%[46.1 µM]	-4%	-17%[46.1 µM]
Cc1ccc(-n2c(SCC(N)=O)nc3c(oc4ccccc43)c2=O)cc1C	x	x	-4.1%	3%	u	12%[46.1 µM]	x	x
COC(=O)c1cc(Cl)c(NC(=O)/C=C/c2ccc(OC)c(OC)c2)cc1OC	-2%	-6%	u	u	u	-53%	8%	38%[14.3 µM]
Cc1[nH]c2ccccc2c1C(c1ccncc1)N1CCN(c2ccccn2)CC1 (stereo not given)	1%	-1%	x	x	-22%	20%[46.1 µM]	-12%	-1%
Cc1cc(OCC(=O)N[C@@H](Cc2c[nH]c3ccccc23)C(=O)O)c2c(C)c(C)c(=O)oc2c1	2%	3%	x	x	-4%	x	17%	x

Later entries
Structure	SARS PLP yeast	RE007 growth inh	Cruzain inh Det	Cruzain inh noDet	StopGo reporter	Marburg entry inh	NS1 inh	LASV entry inh
CCN(c1ccccc1)S(=O)(=O)c1c[nH]c2ccc([N+](=O)[O-])cc12	0%	-3%	x	x	-8%	x	0%	x
O=C1S/C(=C\c2ccccn2)C(=O)N1Cc1ccccc1F	-6%	13%	-0.3%	8%	16%	-2%	u	8%
COc1ccc(-c2nc(O)c3cnccn23)cc1	-7%	0%	-3.7%	11%	-20%	2%	-42%	9%
CCCNC(=O)c1sc2c(c1C(=O)Nc1ccccn1)CCCC2	0%	-24%	x	x	-27%	u	x	-18%
CC(=O)Nc1cc2c(cc1Cl)-c1ccc(F)cc1C2O (stereo not given)	x	10%	x	x	7%	u	x	19%[46.1 µM]
